From PubChem
Rango-impB inh = Rango-importin beta binding inhibition | Q14974 | Rango CFP/YFP FRET sensor + importin beta, 45 min | hit rate 0.031% among 340,000 | Potency, µM (highest dose often 92.2 µM), for inactives: at the highest dose inhibition of complex formation | AID 540263; active = rising FRET ratio curve, often small or poorly fitted; inconclusive = mostly compound fluorescence or quenching in the first reads; inactive = flat curves in all reads;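 further: potency means the concentration at half of the fitted maximal effect; 0% = DMSO wells and 100% = buffer wells lacking importin beta; nearly all actives have a fitted effect of over 15% in size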
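FRET biosensor Rango (snurportin 1 IBB between N-terminal EYFP and C-terminal Cerulean), 50 nM in PBS/1 mM DTT/0.02% Tween-20/0.1% BSA, preincubated 5 min RT with compound; 0.125 microM importin beta added, 45 min RT, CFP/YFP FRET ratio read.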
GLA inh pH 4.5 = inhibitors of human alpha-galactosidase A at pH 4.5; AID 1467; 230,000 tested, under 10 active; purified enzyme, 4-MU-alpha-Gal fluorescence, pH 4.5; activity change, negative = inhibition, % at 105 µM; P06280; inconclusive = small, poorly fitted or top-dose-only inhibition, or a rising curve; inactive = flat fitted curve, though single readings scatter; no compound was filed as active;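 further: 0% = full activity with enzyme and -100% = basal without enzyme; dose as in the result columns while the protocol names 77 µM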
Target sequence (P06280 whole entry, looked up): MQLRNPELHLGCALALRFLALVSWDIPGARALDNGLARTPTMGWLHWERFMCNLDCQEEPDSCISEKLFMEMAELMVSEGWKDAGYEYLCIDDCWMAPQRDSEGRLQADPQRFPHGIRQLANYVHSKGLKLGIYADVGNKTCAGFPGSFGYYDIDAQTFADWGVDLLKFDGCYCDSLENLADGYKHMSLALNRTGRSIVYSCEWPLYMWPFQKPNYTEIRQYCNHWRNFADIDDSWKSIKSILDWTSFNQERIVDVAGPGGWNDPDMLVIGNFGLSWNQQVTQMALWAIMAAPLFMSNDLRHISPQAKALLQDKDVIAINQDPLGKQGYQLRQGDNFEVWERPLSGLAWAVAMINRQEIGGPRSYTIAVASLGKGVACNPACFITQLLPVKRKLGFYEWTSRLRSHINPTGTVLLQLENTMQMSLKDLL
miR-21 reporter = miR-21 reporter, rising signal | HeLa miR-21 FLuc reporter, luciferase, 48 h | Potency, µM (highest dose often 38.3 µM), for inactives: top-dose reporter change, positive = more light | 340,000 tested, under 10 active; active = well fitted rising curve with a large enough effect; inconclusive = small, poorly fitted or top-dose-only effect; inactive = no such curve, though single readings can be large or run the other way;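 further: % of control where 0% means no effect; miR-21 action dims this reporter so a rising signal means less miR-21 action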
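Using DMEM plus 10% FBS, HeLa miR-21-FLuc cells are incubated with test compounds (final up to about 40uM) for 48 hours; firefly luciferase signal is then imaged following reagent-mediated lysis.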
Rango release inh = prevents RanGTP from dissociating the Rango-importin beta complex; O95149+P62826; Biochemical FRET Rango-importin beta, RanGTP-induced dissociation; Potency, µM (titrated, usually from 46.1 µM), inactives show at the top dose activity change, negative = inhibition; hit rate 0.071% among 340,000; active means falling FRET ratio curve, often poorly fitted, with flat reads before Ran was added; inconclusive means other falling curves, or compound fluorescence or quenching; inactive means flat or rising ratio curve;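 further: potency means the concentration at half of the fitted maximal effect; % of control where 0% means no effect; nearly all actives have a fitted effect of over 45% in size; -100% = wells without RanGTP and RCC1; the record marks most hits as doubtful in a second field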
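FRET read at 45 min, room temperature: inhibitors block the CFP/YFP signal rise when RanGTP (0.6 uM Ran, 2 mM GTP, 0.2 uM RCC1) frees Rango (0.1 uM) from importin beta (0.25 uM). Pre-read after 5 min compound exposure flags interference.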
Starred values were filed as active, the others as inactive; ? = inconclusive; nt = not tested or not shown; & = joins results of further samples.

SMILES	Rango-impB inh	GLA inh pH 4.5	miR-21 reporter	Rango release inh
COc1cc(NS(=O)(=O)c2ccc3c(c2)n(C)c(=O)n3C)cc(OC)c1	-2.8%	2	1%	-4%
CN1CCN(c2ccc([N+](=O)[O-])cc2C(=O)c2ccc(Cl)cc2)CC1	-0.3%	-6	18%	-4%
CC(NC(=O)CCNC(=O)c1ccco1)c1ccc(F)cc1 (stereo unspecified)	-4.9%	nt	2%	-6%
NC(=O)CSc1nnc(-c2ccncc2)n1-c1ccc(Cl)cc1	1.3%	3	-2%	-3%
CN(C)S(=O)(=O)c1cc(NC(=O)CSc2nn(-c3ccc(Cl)cc3)c(=S)s2)ccc1Cl	2.7%	2	?	11%
CCN(CC)S(=O)(=O)c1ccc(OCC(=O)NC(=O)Cc2ccccc2)c([N+](=O)[O-])c1	0.0%	nt	nt	0%
Cc1ccc2c(c1)c1c(n2CC(O)CN2CCCCCC2)CCCC1 (stereo unspecified)	-1.1%	nt	2%	1%
CC(C)c1ccc(NC(=O)Nc2cc3sccc3n2C)cc1	?	-11	-6%	-19%
O=C(CN(C(=O)CCC(=O)Nc1nccs1)c1ccccc1F)NCCc1ccccc1	-4.2%	nt	-2%	1%
O=C(NCc1ccccc1)c1ccc(S(=O)(=O)C(F)F)cc1	-0.4%	0	3%	-10%
O=[N+]([O-])c1cccc(/C=N/N2CCN(Cc3ccc(Cl)cc3)CC2)c1	4.1%	-21	-7%	-4%
CSc1ccc(S(=O)(=O)NCC(=O)OCC(=O)N2CCCCC2C)cc1[N+](=O)[O-] (stereo unspecified)	-1.4%	nt	nt	-8%
CCOC(=O)Cn1c(-c2cccnc2Cl)nc2ccccc21	-1.0%	-5	-1%	-4%
Cc1cc(NC(=O)CSc2nc3[nH]c(=O)cc(O)c3s2)ccc1Br	-3.6%	nt	nt	6%
O=[N+]([O-])c1cnccc1Nc1ccc(Cl)cc1	2.3%	-9	9%	1%
Cc1ccc(NC(=S)Nc2ccc3[nH]c(=O)[nH]c3c2)cc1	?	1	-22%	-24%
CC(c1ccccc1)C1CC(=O)N(Cc2ccccc2)C1=O (stereo unspecified)	2.9%	-4	-11%	19%
CCn1c(SCC(=O)Nc2oc(-c3ccccc3)c(-c3ccccc3)c2C#N)nnc1-c1ccco1	4.2%	-9	5%	16%
CCOC(=O)CSc1ccc(C(=O)NCCN2CCOCC2)cc1[N+](=O)[O-]	2.3%	nt	4%	-1%
O=C(Cn1cnc2ccccc2c1=O)Nc1cccc(-c2nnc3n2CCCCC3)c1	-2.9%	-4	5%	-7%
NNC(=O)/C=C/c1ccc(Cl)cc1Cl	2.3%	-5	-9%	-13%
CC(=O)N(c1cccc(Br)c1)c1nc(C)cc(C)c1C#N	-1.2%	4	-10%	-5%
Cn1c(SCC(=O)NCCc2ccccc2)nc2c([nH]c3ccccc32)c1=O	2.1%	4	0%	1%
COc1ccc(C(=O)CCC(=O)Nc2cccnc2)cc1	-2.5%	0	-1%	-6%
CCOC(=O)C1=C(COC(=O)c2cc(Br)c(Br)s2)NC(=O)NC1C (stereo unspecified)	-0.8%	nt	nt	?
CCOC(=O)N1CCN(S(=O)(=O)N2CCCC(C(=O)NC(C)c3ccccc3)C2)CC1 (stereo unspecified)	0.8%	nt	4%	-7%
CN(c1ccccc1)S(=O)(=O)c1cccc(NC(=O)Nc2ccc(Cl)cc2C#N)c1	-4.6%	1	-6%	-16%
O=c1c2ccccc2c(=O)n2n1Cc1ccccc1C2	4.5%	nt	-35%	-8%
CC(C)(C)C1CCC(=NNC(=O)c2ccccc2-n2cccc2)CC1 (stereo unspecified)	-2.2%	4	0%	-6%
COc1ccc(C(C)(C)C)cc1NC(=O)COC(=O)CSCc1c(C)noc1C	0.3%	nt	nt	1%
COc1ccc([N+](=O)[O-])cc1/C=N/NC(=O)CNC(=O)C(c1ccccc1)c1ccccc1	0.4%	0	-11%	-4%
COC(=O)C1=C(C(=O)OC)[C@@H]2Nc3ccccc3[C@@]23C[C@@H](C(=O)OC)N(C(C)=O)C3=N1	0.5%	3&-18	1%	-7%
Cc1c(/C=N/NC(N)=O)c2ccccn2c1C(=O)c1ccncc1	-0.2%	-2	-26%	5%
CCCOc1ccc(N/C=C/C(=O)c2ccc(OC)c(OC)c2)cc1	?	nt	-6%	?
O=C(N/N=C/c1ccco1)c1ccccc1OCc1ccccc1Cl	-6.4%	1	-8%	-17%
Nc1nc(-c2ccc(Br)cc2)cs1	0.9%	1	-37%	2%
CC1CN(C(=O)CCC(=O)NC(C)c2ccccc2)c2cc(Cl)ccc2O1 (stereo unspecified)	2.5%	nt	14%	27%
O=C(N/N=C/c1ccc(Cl)c([N+](=O)[O-])c1)c1cc(-c2ccc3c4c(cccc24)CC3)n[nH]1	-1.4%	-8	-7%	1%
CC1CN(c2nc3c(c(=O)n(Cc4ccc(Cl)c(Cl)c4)c(=O)n3C)n2C)CC(C)O1 (stereo unspecified)	1.3%	-10	13%	-6%
O=C(Nc1cccc(Cl)c1)OCCOC(=O)Nc1cccc(Cl)c1	0.3%	nt	nt	-9%
COc1ccc(CNC(=O)COc2ccc(S(=O)(=O)N3CCCCC3)cc2)cc1	-0.1%	nt	8%	1%
Cc1ccc(CN2CCN(CC(=O)N3CCC(C(N)=O)CC3)C2=O)cc1	2.0%	nt	nt	-8%
COc1ccc(CCNC(=O)CN2C(=O)c3ccccc3S2(=O)=O)cc1OC	-2.1%	-2	-2%	-9%
C/C(=N\NC(=O)c1ccccc1OCCOc1ccccc1)c1ccccc1F	3.9%	nt	nt	30%
CCCCn1c(-c2cccs2)nc2nc3ccccc3nc21	?	7	-7%	?
S=c1[nH]nc(-c2ccccc2Cl)n1/N=C/C=C/c1ccco1	1.2%	-5	-3%	-18%
CCOC(=O)c1sc(NC(=O)c2ccccc2C(=O)O)c(C(=O)OCC)c1C	-0.2%	-4	3%	16%
CCOc1cc(/C=N/Nc2cccc(C(=O)O)c2)ccc1OC(=O)c1ccccc1	1.2%	1	-50%	-20%
O=C(/C=C/c1ccccc1)NCC1(c2ccccc2)CCOCC1	?	2	-2%	9%
Cc1ccc(Cn2ccc(NC(=O)c3cc(-c4ccccc4)on3)n2)cc1	-1.4%	-2	-13%	15%
COc1ccc(CCNC(=O)c2ccc3c(c2)S(=O)(=O)N=C2CCCCCN23)cc1	-0.2%	nt	nt	33%
COc1ccc(-n2ncc(C(C)NS(=O)(=O)c3ccc(C(C)=O)cc3)c2C)cc1 (stereo unspecified)	0.7%	nt	1%	12%
CN1/C(=C/C(=S)NC(=O)C2(C)CC2(Cl)Cl)C(C)(C)c2ccccc21 (stereo unspecified)	?	-15	13%	0.52µM*
Cc1ccc2[nH]c(=O)c(CN(CCN3CCOCC3)C(=O)Nc3ccc(F)cc3)cc2c1	2.5%	1	4%	21%
COc1ccc(CCNC(=O)c2cnc3n(c2=O)CCS3)cc1OC	-4.1%	-1	-7%	6%
CCOC(=O)c1c(-c2ccccc2)csc1NC(=O)/C(C#N)=C/c1ccc(O)c(OC)c1	?	-12	-2%	?
Cc1nn(-c2ccccc2)c(Cl)c1C(=O)Nc1ccc(N2CCOCC2)cc1	0.3%	4	11%	2%
COc1ccccc1CNC(=O)CCNS(=O)(=O)c1cc(Br)cnc1N	0.5%	nt	2%	10%
COc1cc(OC)cc(C(=O)N[C@H](C(=O)NCc2cccs2)C(C)C)c1	?	6	-4%	-2%
COC(=O)CC(CC(=O)OC)n1cccc1	?	nt	nt	2%

Brought forward from above: 5 entries; new compounds follow.
SMILES	Rango-impB inh	GLA inh pH 4.5	miR-21 reporter	Rango release inh
CCOC(=O)c1c(-c2ccccc2)csc1NC(=O)/C(C#N)=C/c1ccc(O)c(OC)c1	?	-12	-2%	?
Cc1nn(-c2ccccc2)c(Cl)c1C(=O)Nc1ccc(N2CCOCC2)cc1	0.3%	4	11%	2%
COc1ccccc1CNC(=O)CCNS(=O)(=O)c1cc(Br)cnc1N	0.5%	nt	2%	10%
COc1cc(OC)cc(C(=O)N[C@H](C(=O)NCc2cccs2)C(C)C)c1	?	6	-4%	-2%
COC(=O)CC(CC(=O)OC)n1cccc1	?	nt	nt	2%
CC(/C=C/c1ccccc1)=N/O	3.2%	-1	-27%	2%
CCC(C)N(C)C(=O)c1cc2ccccc2c(-c2ccccc2Cl)n1 (stereo unspecified)	1.6%	-3&-3	-2%	3%
Cn1c(=O)[nH]c(=O)c2c1nc(SCC(=O)O)n2Cc1ccccc1	4.2%	nt	-4%	14%
Cc1ccc(S(=O)(=O)N(C)c2ccc(OCC(=O)Nc3cccc(-n4cnnn4)c3C)cc2)cc1	0.3%	-7	2%	29%
O=C(Nc1cc(Cl)ccc1Oc1ccccc1)c1ccc(F)cc1	-1.3%	25	-5%	0%
COCCc1ccc(OCC(O)CNC(C)C)cc1 (stereo unspecified)	-4.9%&-4.3%&3.4%	2&-13&8	3%	-1%&7%&3%
COc1ccc(N2CCN(C(=O)CSc3nnc4ncccn34)CC2)cc1	-1.4%	1	10%	-4%
CC1CCCCC12NC(=O)N(CC(=O)Nc1ccc(N3CCOCC3)cc1)C2=O (stereo unspecified)	2.1%	-6	-11%	-29%
Cc1ccc(NC(=O)CC(N)=S)cc1	-4.5%	6	-8%	-8%
CC(C)(C)c1ccc(Cn2cnc(-c3ccc([N+](=O)[O-])cc3)c2)cc1	?	?	-25%	3%
CSCC(=O)N1CCCC(CO)(Cc2ccccc2C)C1 (stereo unspecified)	0.1%	-1	-3%	4%
Cc1ccc(Cl)c(OCC(=O)NCC(c2cccs2)N2CCOCC2)c1 (stereo unspecified)	-3.7%	nt	nt	-29%
CCn1c(C)nc([N+](=O)[O-])c1C(=O)O	-2.7%	-2	1%	-21%
COc1ccc(N2CCN(Cc3nc(N)nc(N4CCCc5ccccc54)n3)CC2)cc1	-2.1%	-2	-1%	22%
COc1cc(C(CCN2CCCC2)c2c(OC)cc(OC)c3c(C)cc(=O)oc23)cc(OC)c1OC (stereo unspecified)	0.7%	-4	-5%	0%
CC1CCCCC1NC(=O)COC(=O)c1ccc(S(=O)(=O)N2CCOCC2)cc1 (stereo unspecified)	-1.7%	6	-4%	21%
O=C(NC1CCCCC1)c1ccc(CNc2c(N3CCOCC3)c(=O)c2=O)cc1	0.4%	1	-3%	19%
CCC(=O)NC(=S)Nc1cccc(NC(=O)c2ccccc2C)c1	1.1%	-18	-7%	7%
COc1ccc(Cc2nc(C(=O)Nc3ccc(Cl)cc3)cs2)cc1	0.5%	0	8%	-4%
Cc1ccc(N=Nc2ccc(O)c3ncccc23)cc1C	-0.1%	-15	-29%	10%
C=CCN(c1ccc(F)cc1)S(=O)(=O)c1cc(C(=O)NC2CCC(O)CC2)ccc1Cl (stereo unspecified)	-1.2%	nt	nt	0%
Cc1ccc(OC(=O)c2ccccc2P(=O)(O)O)cc1	0.2%	8	-3%	-7%
O=C(OC(C(=O)NCc1ccccc1)c1ccccc1F)c1ccco1 (stereo unspecified)	-3.5%	nt	2%	-1%
Cc1ccc(S(=O)(=O)N(CC(=O)Nc2ccccc2C(=O)O)c2ccc(Cl)cc2)cc1	-1.6%	-3	11%	1%
C=CCn1c(SCC(=O)Nc2cc(C)nn2-c2ccccc2)nnc1C1CCCCC1	-1.0%	-2	7%	1%
CC(C)c1cccc(C(C)C)c1NC(=O)CNCC(O)c1ccccc1 (stereo unspecified)	5.1%	nt	-4%	12%
O=S(=O)(c1ccc2c(c1)oc1ccccc12)N1CCOCC1	-2.1%	-2	-11%	4%
CN(C(=O)Nc1ccc(Cl)cc1)n1cnc2ccccc2c1=O	-1.3%	2	-17%	-1%
CC(Oc1ccc2ccc(=O)oc2c1)C(=O)NCCCn1ccnc1 (stereo unspecified)	1.7%	nt	0%	-3%
CCOC(=O)CSc1nc2cc3c(cc2cc1C#N)OCCO3	?	8	-81%	-24%

This is a subset; rates above refer to the full screens.
